# High-throughput results as filed in PubChem BioAssay.
# Rango complex inh – Rango-importin beta binding inhibition | Q14974 | hit rate 0.031% among 340,000 | Rango CFP/YFP FRET sensor + importin beta, 45 min | Potency, µM (series often up to 92.2 µM), inactives show at the top dose inhibition of complex formation; active = rising FRET ratio curve, often small or poorly fitted; inconclusive = mostly compound fluorescence or quenching in the first reads; inactive = flat curves in all reads;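 further: potency means the concentration at half of the fitted maximal effect; 0% = DMSO wells and 100% = buffer wells lacking importin beta; nearly all actives have a fitted effect of over 15% in size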
# Target sequence (Q14974 whole entry, looked up): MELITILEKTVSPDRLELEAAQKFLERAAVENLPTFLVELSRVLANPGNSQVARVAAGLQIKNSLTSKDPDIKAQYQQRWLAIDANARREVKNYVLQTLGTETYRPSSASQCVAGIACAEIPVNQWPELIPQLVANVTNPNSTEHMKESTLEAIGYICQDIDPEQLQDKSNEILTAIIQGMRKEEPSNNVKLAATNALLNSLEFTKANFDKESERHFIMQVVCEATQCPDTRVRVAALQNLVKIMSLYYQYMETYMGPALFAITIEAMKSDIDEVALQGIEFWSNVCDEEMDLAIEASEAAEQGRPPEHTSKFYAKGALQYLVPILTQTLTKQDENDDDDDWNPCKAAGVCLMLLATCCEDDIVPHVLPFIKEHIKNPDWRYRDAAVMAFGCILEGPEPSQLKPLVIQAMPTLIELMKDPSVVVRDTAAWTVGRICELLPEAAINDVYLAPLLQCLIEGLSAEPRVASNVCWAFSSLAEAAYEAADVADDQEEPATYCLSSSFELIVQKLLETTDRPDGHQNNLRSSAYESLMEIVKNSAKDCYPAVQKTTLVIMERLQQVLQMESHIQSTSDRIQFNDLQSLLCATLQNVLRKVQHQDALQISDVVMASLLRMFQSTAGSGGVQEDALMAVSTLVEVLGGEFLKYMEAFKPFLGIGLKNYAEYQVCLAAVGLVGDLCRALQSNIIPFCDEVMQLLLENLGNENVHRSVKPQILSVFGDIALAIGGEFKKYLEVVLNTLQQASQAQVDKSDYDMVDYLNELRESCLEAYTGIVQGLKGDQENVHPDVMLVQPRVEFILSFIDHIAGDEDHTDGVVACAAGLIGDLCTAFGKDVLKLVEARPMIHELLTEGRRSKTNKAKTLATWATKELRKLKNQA
#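 FRET biosensor Rango (snurportin 1 IBB between N-terminal EYFP and C-terminal Cerulean), 50 nM in PBS/1 mM DTT/0.02% Tween-20/0.1% BSA, preincubated 5 min RT with compound; 0.125 microM importin beta added, 45 min RT, CFP/YFP FRET ratio read.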
# GLA inh pH 4.5 – blocks human alpha-galactosidase A at pH 4.5 | P06280 | purified enzyme, 4-MU-alpha-Gal fluorescence, pH 4.5 | activity change, negative = inhibition, % at 105 µM | 230,000 tested, under 10 active | AID 1467; inconclusive = small, poorly fitted or top-dose-only inhibition, or a rising curve; inactive = flat fitted curve, though single readings scatter; no compound was filed as active;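 further: 0% = full activity with enzyme and -100% = basal without enzyme; dose as in the result columns while the protocol names 77 µM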
# Rango dissoc inh – inhibition of RanGTP-driven Rango-importin beta dissociation | O95149+P62826 | Biochemical FRET Rango-importin beta, RanGTP-induced dissociation | Potency, µM (highest dose often 46.1 µM), for inactives: at the top dose activity change, negative = inhibition | hit rate 0.071% among 340,000 | AID 540253; active means falling FRET ratio curve, often poorly fitted, with flat reads before Ran was added; inconclusive means other falling curves, or compound fluorescence or quenching; inactive means flat or rising ratio curve;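 further: potency means the concentration at half of the fitted maximal effect; % of control where 0% means no effect; nearly all actives have a fitted effect of over 45% in size; -100% = wells without RanGTP and RCC1; the record marks most hits as doubtful in a second field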
#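 Quantitative HTS using a FRET biosensor: 0.1 uM Rango, 0.25 uM importin beta, 0.6 uM Ran, 2 mM GTP, 0.2 uM RCC1 final, PBS with DTT, Tween-20 and BSA. Post-read taken 45 min after Ran addition.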
# miR-21 reporter – raises the signal of a miR-21 reporter | HeLa miR-21 FLuc reporter, luciferase, 48 h | Potency, µM (series often up to 38.3 µM), for the others: top-dose reporter change, positive = more light | 340,000 tested, under 10 active | AID 2288; active = well fitted rising curve with a large enough effect; inconclusive = small, poorly fitted or top-dose-only effect; inactive = no such curve, though single readings can be large or run the other way;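 further: % of control where 0% means no effect; miR-21 action dims this reporter so a rising signal means less miR-21 action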
#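 HeLa cells stably expressing CMV-driven firefly luciferase with a downstream miR-21 binding sequence, endogenously expressing miR-21, were treated with titrations (up to about 40uM final) for 48 hours at 37 degree Celsius. Luciferase luminescence was read after lysis.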
# Numbers without * were called inactive; u = inconclusive; x = no result given.
# Abbreviations: A = Rango complex inh; B = GLA inh pH 4.5; C = Rango dissoc inh; D = miR-21 reporter
Cc1ccc(S(=O)(=O)c2nc(-c3ccccc3Cl)oc2N(C)C2CCN(C)CC2)cc1
  A = -4.2% | B = x | C = 6.5% | D = x
Cn1ccnc1P(=S)(c1nccn1C)N1CCOCC1
  A = 4.2% | B = 1.7 | C = 0.8% | D = 2.9%
CCCNC(=O)N1[C@H]2CC[C@@H]1C(C(=O)OC)=C(c1ccc(F)cc1OCc1ccccc1)C2
  A = -4.1% | B = x | C = -19.4% | D = x
CCOP(=O)(OCC)C(NC(=O)Nc1ccc(Cl)c(Cl)c1)c1ccccc1 (configuration not stated)
  A = -1.4% | B = -25.4 | C = 0.6% | D = u
COc1ccc(C2NCc3ccc4c(c3-n3cccc32)OCO4)cc1OC (configuration not stated)
  A = -2.5% | B = 5.5 | C = -8.8% | D = 10.2%
Cc1ccc(OCCSC2=NN2c2cc(C)nc(N)n2)cc1
  A = -1.6% | B = 7.5 | C = 0.7% | D = -7.5%
Cc1ccsc1C(=O)C1CCCN(Cc2cccn2-c2ccccn2)C1 (configuration not stated)
  A = -7.0% | B = -1.6 | C = 34.1% | D = 19.7%
COC(=O)C1=C(c2ccc(F)cc2OCc2ccccc2)C[C@@H]2CC[C@H]1N2C(=O)NCc1cccc(F)c1
  A = -0.4% | B = x | C = -10.0% | D = x
COc1ccccc1CCNCc1cc2c(cc1[N+](=O)[O-])OCO2
  A = 3.9% | B = 5.1 | C = -1.9% | D = -21.2%
CC(CO)(CO)N=Cc1c(O)n(-c2cccc3ccccc23)c(=O)[nH]c1=O
  A = 4.1% | B = 3.4 | C = -14.5% | D = -7.4%
COC(=O)C1=C(c2ccc3ccccc3c2)C[C@@H]2CC[C@H]1N2C(=O)N1CCCCC1
  A = 0.4% | B = x | C = 1.3% | D = x
CCc1ccc2c(CN3CC=C(c4ccccc4)CC3)cc(=O)oc2c1
  A = u | B = 6.3 | C = 3.7% | D = -5.2%
O=S1(=O)N(CCN2CC=C(c3c[nH]c4cc(F)ccc34)CC2)c2cccc3c2N1CCC3
  A = u | B = -28.3 | C = -25.3% | D = x
COC(=O)C1=C(c2ccc(OC)c(OC)c2)C[C@@H]2CC[C@H]1N2C(=O)NCc1cccc2ccccc12
  A = -2.3% | B = x | C = 14.3% | D = x
COc1ccc(-c2oc(=O)n(C)c2-c2ccc(OC)cc2)cc1
  A = 0.3% | B = x | C = u | D = -7.7%
CCn1c(=O)oc2cc(NC(=O)CCl)ccc21
  A = 5.3% | B = -1.9 | C = 0.5% | D = u
O=c1c2ccccc2nc(-c2ccco2)n1-c1cccnc1
  A = 0.1% | B = 1.8 | C = 20.8% | D = 3.4%
CCCCCCn1c(O)c(C=NCCCn2ccnc2)c(=O)[nH]c1=O
  A = 2.0% | B = 0.1 | C = -22.6% | D = -4.2%
COc1ccc(N=Cc2c(O)n(CC3CCCO3)c(=O)[nH]c2=O)cc1 (configuration not stated)
  A = 3.3% | B = 6.5 | C = -5.7% | D = -16.8%
CCOC(=O)c1cc2c(cn1)[C@H](CCO)NC2
  A = 0.2% | B = x | C = -14.0% | D = x
CN1C(=O)C(=Cc2cn(CC(=O)N3CCCC3)c3ccccc23)C(=O)N(C)C1=O
  A = -0.1% | B = x | C = -15.7% | D = 6.0%
CN1C(=O)C(=Cc2ccccc2OCc2ccccc2Cl)C(=O)N(C)C1=O
  A = u | B = 7.1 | C = -4.7% | D = -10.7%
CC(=NCCc1ccccc1)c1c(O)n(C)c(=O)n(C)c1=O
  A = -0.6% | B = -1.5 | C = -8.1% | D = 2.0%
CCCC(C)C1(CC)C(=O)NC(=Nc2ccc(F)cc2)NC1=O (configuration not stated)
  A = -6.4% | B = -1.9 | C = 2.7% | D = 1.0%
Cc1ccc2nc3c(cc2c1)CC1(C(=O)N(C)C(=O)N(C)C1=O)C1COCCN31 (configuration not stated)
  A = 0.1% | B = 9.5 | C = 6.7% | D = -48.0%
CC1CCC(C(C)C)C(OP(N)(=O)c2ccccc2)C1 (configuration not stated)
  A = -2.5% | B = 1.9 | C = 14.7% | D = 2.8%
c1ccc(CNCCc2c[nH]c3ccccc23)cc1
  A = -2.4% | B = x | C = -12.6% | D = -1.6%
COc1ccc(CN2CCN(C(=O)Cc3ccccc3)CC2)c(OC)c1
  A = 2.8% | B = 3.0 | C = -23.1% | D = -18.3%
Cc1ccc(OC(F)F)c(N2C(=O)C3C4CCC(O4)C3C2=O)c1 (configuration not stated)
  A = -0.4% | B = x | C = 11.9% | D = x
COc1ccc2c(c1)[C@]13CCCCC1C(C2)N(C)CC3 (some centres not stated)
  A = -4.1% | B = x | C = 1.5% | D = x
CCOC(=O)[C@]12Cc3cc(Cl)ccc3[C@H]1N(Cc1ccccc1)C(=O)c1ccccc12
  A = 1.2% | B = x | C = -11.8% | D = x
C=CCNC(=O)c1c(N)n(CCN2CCOCC2)c2nc3ccccc3nc12
  A = u | B = 3.0 | C = u | D = -8.2%
O=c1[nH]c(=S)[nH]c(O)c1N=Nc1ccc(S(=O)(=O)N2CCc3ccccc32)cc1
  A = 0.0% | B = -8.2 | C = -13.3% | D = -12.7%
O=c1c2ccccc2nc(-c2ccccc2)n1-c1ccncc1
  A = 3.3% | B = 2.7 | C = 9.4% | D = 2.3%
O=C(NCCN1CCOCC1)c1ccc(Cl)nc1
  A = u | B = 9.9 | C = 3.7% | D = 0.9%
CC(C)CCP(=O)(O)c1ccccc1
  A = 5.0% | B = 5.4 | C = 10.2% | D = -0.5%
CC(=O)Cc1c[nH]c2ccccc12
  A = x | B = -22.5 | C = x | D = -1.0%
Cc1ccccc1-n1c(CNc2ccccc2)nc2ccccc2c1=O
  A = 0.2% | B = x | C = -10.6% | D = x
CC[C@@]1(O)C(=O)OCc2c1cc1n(c2=O)Cc2cc3ccccc3nc2-1
  A = x | B = u | C = x | D = u
CCOC(=O)C1=C(N)Oc2c(c(=O)oc3ccccc23)C12C(=O)N(C)c1ccccc12 (configuration not stated)
  A = -3.3% | B = -4.5 | C = 5.6% | D = 4.7%
CC(C)Nc1ccc(Nc2ccccc2)cc1
  A = -0.6% | B = x | C = -3.7% | D = x
CC12CN3CN(C1)CC(C)(C3)C2=NO
  A = -3.6% | B = -3.0 | C = 17.5% | D = -6.9%
CN1C(=O)NC(=O)C(C)(C2=CCCCC2)C1=O (configuration not stated)
  A = -1.0% | B = -4.1 | C = 31.1% | D = x
O=C(Nc1ccc(Cl)cc1)N1CC1
  A = 6.8% | B = x | C = -6.2% | D = x
COc1cc(C2SCC(=O)Nc3c2c(=O)[nH]n3C2CCCCCC2)cc(OC)c1OC (configuration not stated)
  A = -0.6% | B = -9.9 | C = 4.7% | D = 0.9%
O=C(Cn1ncc2c3ccccc3n(Cc3ccccc3)c2c1=O)N1CCC2(CC1)OCCO2
  A = x | B = -4.0 | C = x | D = -5.1%
COc1cccc(-n2c(O)c(C=Nc3c(C)n(C)n(-c4ccccc4)c3=O)c(=O)[nH]c2=O)c1
  A = 1.2% | B = -7.6 | C = 0.1% | D = 0.2%
CC(C(=O)O)N(C(=O)c1ccccc1)c1ccc(F)c(Cl)c1 (configuration not stated)
  A = 6.4% | B = -2.4 | C = -5.2% | D = 0.7%
COc1ccc(CC2(CCc3ccccn3)C(=O)NC(=O)N(c3ccccc3C)C2=O)cc1OC (configuration not stated)
  A = -2.4% | B = 8.7 | C = 0.0% | D = -1.0%
COc1ccc(NC(=O)c2cc([N+](=O)[O-])ccc2N2CCNCC2)cc1
  A = 0.9% | B = 3.1 | C = -9.3% | D = -1.0%

# Other structures follow.
# Abbreviations: A = Rango complex inh; B = GLA inh pH 4.5; C = Rango dissoc inh; D = miR-21 reporter
CC1(C)N=C(c2ccccc2)[C@@H]2C(c3ccc([N+](=O)[O-])cc3)N21 (some centres not stated)
  A = -3.3% | B = -2.2 | C = -9.7% | D = -1.8%
COC(=O)Cn1cc(/C=C2\C(=O)NC(=O)N(c3ccccc3)C2=O)c2ccccc21
  A = -0.9% | B = x | C = 1.6% | D = 7.2%
Cc1cccc(-n2c(O)c(C=NCCN3CCNCC3)c(=O)[nH]c2=S)c1
  A = -1.2% | B = x | C = 5.4% | D = -4.8%
CN1CCN(c2ccc(N)cc2Cl)CC1
  A = 1.5% | B = -1.2 | C = 0.2% | D = -6.2%
CCN(CC)CCCN=C(C)c1c(O)n(-c2ccc(C)cc2)c(=O)[nH]c1=O
  A = 0.6% | B = -3.6 | C = 8.1% | D = -9.1%
COC1=CC2[C@@H]3Cc4ccc(OC)c(O)c4[C@]2(CCN3C)CC1=O (some centres not stated)
  A = -3.7% | B = x | C = 3.5% | D = x
CC(Cc1ccccc1Sc1ccc(O)cc1)N(C)C (configuration not stated)
  A = 3.0% | B = -20.8 | C = 0.7% | D = 7.6%
CCOc1ccc(/C=C2/C(=O)NC(=O)N(CCc3ccc(F)cc3)C2=O)cc1
  A = -4.2% | B = 5.9 | C = -2.8% | D = 0.1%
CCOC(=O)/C(=N\Nc1ccccc1)N1CC1
  A = 4.2% | B = -3.0 | C = 3.6% | D = -25.9%
CCN(CC)c1ccc(N=Cc2c(O)n(CCc3ccc(OC)c(OC)c3)c(=O)[nH]c2=O)cc1
  A = u | B = 8.3 | C = u | D = -2.7%
C=CCn1c(O)c(C(CC)=NCCC2=CCCCC2)c(=O)[nH]c1=O
  A = 0.4% | B = 4.1 | C = 19.0% | D = 0.9%
CCN1CCN(C(=O)Cc2coc3ccc4ccccc4c23)CC1
  A = 3.8% | B = 3.6 | C = -5.4% | D = 0.0%
O=C(c1cc(C(=O)NCc2ccc(Cl)cc2)c(=O)n(Cc2ccc(Cl)cc2)c1)c1cc(F)ccc1O
  A = -0.5% | B = 19.0 | C = 6.6% | D = 1.6%
Cc1ccc2c(c1)C1CN(C)CCC1N2C(=O)COc1ccc(S(=O)(=O)N2CCOCC2)cc1 (configuration not stated)
  A = -4.4% | B = -14.0 | C = -4.3% | D = -1.8%
COc1ccc(OC)c(N2C(=O)NC(=O)C3(Cc4cc(C)ccc4N(C)C3)C2=O)c1 (configuration not stated)
  A = -0.5% | B = 3.8 | C = 1.2% | D = -5.7%
CN1CCN(Cc2cn3cccnc3n2)CC1
  A = 2.6% | B = -4.1 | C = -7.4% | D = -2.9%
COC(=O)C1=C(c2cccc(OCc3ccccc3)c2)C[C@@H]2CC[C@H]1N2C(=O)NCc1ccc([N+](=O)[O-])cc1
  A = 0.1% | B = x | C = -0.1% | D = x
O=C(Cc1ccccc1)Oc1ccc([N+](=O)[O-])cc1
  A = -2.6% | B = x | C = -2.4% | D = -6.9%
CN(C)c1ccc(C=C2C=CC=C2)cc1
  A = u | B = x | C = -24.2% | D = x
COC(=O)C1=C(c2cccc(OCc3ccccc3)c2)C[C@@H]2CC[C@H]1N2C(=O)NCc1ccccc1OC
  A = -3.5% | B = x | C = 20.6% | D = x
O=C(Nc1ccccc1F)Oc1cccc(OC(=O)Nc2ccccc2F)c1
  A = -1.2% | B = 7.3 | C = 1.8% | D = -42.8%
CC(C)c1ccc(-n2c(O)c(C=NCCN3CCNCC3)c(=O)[nH]c2=S)cc1
  A = 6.1% | B = x | C = -2.9% | D = -8.6%
O=c1c2ccccc2nc(-c2ccccc2)n1-c1ccccc1O
  A = 4.9% | B = x | C = -6.4% | D = 12.9%
COc1cccc(N2C(=O)NC(=O)/C(=C/c3ccc([N+](=O)[O-])s3)C2=O)c1
  A = u | B = 1.1 | C = -18.2% | D = 6.2%
CCc1ccc(N2C(=O)NC(=O)/C(=C/c3cccn3CCOc3ccc(C)cc3)C2=O)cc1
  A = u | B = 0.2 | C = -5.5% | D = -5.2%

# 3 successive entries from above, for reference:
# Abbreviations: A = Rango complex inh; B = GLA inh pH 4.5; C = Rango dissoc inh; D = miR-21 reporter
CC1(C)N=C(c2ccccc2)[C@@H]2C(c3ccc([N+](=O)[O-])cc3)N21 (some centres not stated)
  A = -3.3% | B = -2.2 | C = -9.7% | D = -1.8%
COC(=O)Cn1cc(/C=C2\C(=O)NC(=O)N(c3ccccc3)C2=O)c2ccccc21
  A = -0.9% | B = x | C = 1.6% | D = 7.2%
Cc1cccc(-n2c(O)c(C=NCCN3CCNCC3)c(=O)[nH]c2=S)c1
  A = -1.2% | B = x | C = 5.4% | D = -4.8%

# Only part of the results is shown; rates above refer to the full screens.
